2A Renilla: lowers the Renilla signal of an FMDV 2A StopGo reporter; HEK cells with a luciferase reporter of 2A StopGo recoding; Potency, µM (top dose mostly 57.5 µM), for the others: at the highest dose signal change, negative = less light; hit rate 0.32% among 120,000; AID 1745857; active means well fitted falling curve with a large enough effect; inconclusive means small, poorly fitted or top-dose-only effect; inactive means no such curve, though single readings can be large or run the other way; also: nearly all actives have a fitted effect of over 55% in size; overnight with compound
StopGo FLuc: FMDV 2A StopGo reporter, firefly signal; HEK cells with a luciferase reporter of 2A StopGo recoding; Potency, µM (highest dose often 57.5 µM), without a hit: top-dose signal change, negative = less light; hit rate 0.23% among 120,000; AID 1745856; active = well fitted falling curve with a large enough effect; inconclusive = small, poorly fitted or top-dose-only effect; inactive = no such curve, though single readings can be large or run the other way; also: nearly all actives have a fitted effect of over 60% in size; overnight with compound
The depositor's hits bear a star; ? = inconclusive; [ ] = dose if it differs, or a comment. % is scaled to controls: 0 for no effect and ±100 for the full control effect; potency is read from the fitted curve at half-maximal effect. An excerpt; count on the stated rates, not on these rows.

nr	compound	2A Renilla	StopGo FLuc
1	CCCOc1ccc(-c2cc(C(=O)NCC3CCCO3)c3ccccc3n2)cc1 (stereo unspecified)	-25%	56%[activator]
2	Cc1csc2nc(COC(=O)c3ccc(NC(=O)C(C)C)cc3)cc(=O)n12	69%[activator]	8%
3	Cc1ccc(-c2nc(CNC(=O)c3ccccc3)c(C)o2)cc1	-15%	33%
4	CNC1CCCc2ccccc21 (stereo unspecified)	-6%	-7%
5	CCOC(=O)CN1C(C(=O)c2ccccc2)=C(OC(=O)CC)c2ccccc2S1(=O)=O	1%	-2%
6	O=C(CCc1ncc(-c2ccccc2F)o1)N1CCN(S(=O)(=O)c2ccc(F)cc2F)CC1	-9%	11%
7	COc1ccc2oc(=O)cc(CN3CCN(C(=O)c4cccc(C)c4)CC3)c2c1	4%	-7%
8	Cc1cc2c(C(C)C)c(O)c(O)c(C=O)c2c(O)c1-c1c(C)cc2c(C(C)C)c(O)c(O)c(C=O)c2c1O	?	-3%[11.5 µM]
9	COc1ccc(Nc2nnc(SCC(=O)c3ccccc3)s2)cc1	44%[activator]	1%
10	CCC(Sc1nnc(-c2ccc(OC)cc2)c(-c2ccc(OC)cc2)n1)C(=O)Nc1cccc(OC)c1 (stereo unspecified)	31%[activator]	-6%
11	COc1cc(Cl)c(C)cc1NC(=O)CN1c2ccccc2S(=O)(=O)c2ccccc21	6%	-9%
12	O=C(CCC(=O)c1ccc2c(c1)OCCO2)OCC(=O)c1ccc(Cl)c(Cl)c1	9%	5%
13	CCc1ccccc1N1CC(c2nc3ccccc3n2Cc2cccc(C)c2)CC1=O (stereo unspecified)	?	?
14	COc1cccc2c1cc1c(=O)n(CC(=O)NCCCN3CCN(C)CC3)nc(C)n12	-2%	-8%
15	CC(C)c1cnc2c(c1SCCN1CCOCC1)c(=O)n(C)c(=O)n2C	-15%	-1%
16	COCCCNc1nc2c(-c3cccc(Br)c3)nnn2c2ccccc12	-15%	57%[activator]
17	COc1ccc2oc(=O)c(/C(C)=N/O)cc2c1	4%	0%
18	O=C(COc1ccccc1[N+](=O)[O-])N1CCN(CCc2ccncc2)CC1	-8%	-10%
19	O=C(CSc1ncc(-c2ccc(F)cc2)o1)Nc1cc(F)ccc1F	21%	131%[activator]
20	CCCCN1C(=O)c2[nH]nc(-c3ccccc3O)c2C1c1ccc(C(C)(C)C)cc1 (stereo unspecified)	4%	21%
21	COc1ccc(CNS(=O)(=O)c2ccc(-c3cnc(C4CC4)o3)cc2)cc1	-21%	?
22	O=C(NC1CC(=O)N(c2cccc(F)c2)C1)C(c1ccccc1)c1ccccc1 (stereo unspecified)	5%	-8%
23	CCOC(=O)N1CCc2c(sc3c2c(=O)n(Cc2ccccc2)c(=O)n3Cc2cccc(C)c2)C1	-7%	-10%
24	CC(=O)Nc1cccc(C(=O)NCc2ccc3c(c2)CCN3C(=O)c2ccc(F)cc2)c1	-14%	-23%
25	Cc1ccc(Nc2sc(C(=O)c3ccccc3)c(N)c2C(=O)Nc2ccc(Cl)cc2)cc1	?	?
26	CCOC(=O)c1ccc(NC(=O)N2CCN(Cc3nc(-c4ccccc4)oc3C)CC2)cc1	-9%	8%
27	CCc1nnc(NC(=O)c2nc(SCc3ccccc3F)ncc2Cl)s1	19%	-9%
28	COc1cccc(/C=C2\Oc3cc(OS(=O)(=O)c4ccc(C)cc4)ccc3C2=O)c1OC	-2%	?
29	CC(=O)Oc1cc(OC(C)=O)c2c(C)c(CC(=O)NCc3ccccc3)c(=O)oc2c1	26%	0%
30	CCCCCc1ccc(-c2ccc(C3CCC(CCCCC)CC3)cc2)nc1 (stereo unspecified)	-3%	1%
31	O=C1CCc2cc(S(=O)(=O)NC(C(=O)Nc3cccc(F)c3)c3ccccc3)ccc2N1 (stereo unspecified)	?	20%
32	Cc1cccc(-n2c(=O)c3ccccc3n(Cc3ccccc3C#N)c2=O)c1	-4%	-12%
33	COc1ccc(CN2CCN(C/C=C/c3ccccc3)CC2)c(OC)c1OC	11%	9%
34	CCCc1cc(N2CCN(c3ccc(OC)cc3)CC2)n2cnnc2n1	?	?
35	Cc1cc(-c2ccc(S(=O)(=O)N3CCN(c4ccc(Cl)cc4)CC3)s2)on1	-7%	-9%
36	CN(Cc1ccccc1)C(=O)C1CCC(CNS(=O)(=O)c2ccc3c(c2)CCCC(=O)N3)CC1 (stereo unspecified)	?	?
37	CC(C)CN1CCC(NC(=O)NCCc2cccc3cccnc23)CC1	-16%	-20%
38	CCOc1ccccc1NS(=O)(=O)c1c(C)nc2sccn2c1=O	142%[activator]	-21%
39	Cc1ccc(-c2c3c(=O)n(C)c(=O)n(C)c3c3n2CCOC3c2coc3ccccc3c2=O)cc1 (stereo unspecified)	-16%	-12%
40	Cc1nn2c(=O)cc(COC(=O)CNC(=O)c3ccc(F)cc3)nc2s1	-8%	-22%
41	Cc1cc(C)cc(NC(=O)CNS(=O)(=O)c2ccc3nc(C)sc3c2)c1	42%[activator]	0%
42	Cc1ccc(S(=O)(=O)N(CC(=O)N2CCc3ccccc3C2)c2ccc(C)c(C)c2)cc1	203%[activator]	-15%
43	Cc1ccc2[nH]c(=O)c(-c3noc(CCCC(=O)NCC(C)C)n3)cc2c1	9%	8%
44	COc1ccc(CNC(=O)CCc2c(C)nc3c(c(C)nn3-c3ccccc3)c2C)cc1	11%	6%
45	COc1ccc(NC(=O)[C@H]2O[C@@H]3OC(C)(C)O[C@@H]3[C@H]3OC(C)(C)O[C@H]32)c(OC)c1	-4%	-3%

Rewritten with each value named: part of the list above.
[21] COc1ccc(CNS(=O)(=O)c2ccc(-c3cnc(C4CC4)o3)cc2)cc1
  2A Renilla: -21%
  StopGo FLuc: ?
[19] O=C(CSc1ncc(-c2ccc(F)cc2)o1)Nc1cc(F)ccc1F
  2A Renilla: 21%
  StopGo FLuc: 131%[activator]

Next structures follow.
nr	compound	2A Renilla	StopGo FLuc
46	CC(C)CC(=O)Nc1ccccc1	5%	2%
47	Fc1ccccc1CN1CCc2ccccc2C1	-5%	11%
48	Cc1cccc(-c2cc(C(=O)NCc3ccccn3)c3ccccc3n2)c1	24%	100%[activator]
49	O=C(Cn1c(=O)oc2cc(S(=O)(=O)N3CCOCC3)ccc21)c1ccc2c(c1)OCCO2	-3%	-7%
50	NC(=O)c1cccc(CNC(=O)C2CCCC2)c1	14%	0%
51	COc1ccc(S(=O)(=O)N2CCN(c3ccccc3OC)CC2)cc1-c1noc(C)n1	11%	22%
52	CC(C)OC(=O)/C(C#N)=C/c1ccc(-c2ccccc2Cl)o1	15%	1%
53	Cc1ncc(CSSCc2cnc(C)c(O)c2CO)c(CO)c1O	-1%	-9%[11.5 µM]
54	COc1ccc(C2c3c(n(C)c4ccccc34)C(=O)N2CC(=O)Nc2ccc(Cl)cc2)cc1 (stereo unspecified)	-7%	1%
55	CCCCCn1nc(C(=O)N2CCCC(c3nc4ccccc4s3)C2)c2ccccc2c1=O (stereo unspecified)	93%[activator]	14%
56	Cc1ccc(C)c(CN2C(=O)c3ccccc3S(=O)(=O)c3ccc(C(=O)N4CCCCCC4)cc32)c1	243%[activator]	0%
57	CC(=O)c1cc2c(cc1N/C(=N/S(=O)(=O)c1ccc(Br)cc1)c1ccccc1)OCO2	1%	-5%
58	COc1cc(C(=O)Nc2ccc(OCc3cc(=O)n4cc(C)sc4n3)cc2)cc(OC)c1OC	-12%	38%[activator]
59	CCN(c1ccccc1)S(=O)(=O)c1nnc(NC(=O)C(C)(C)C)s1	23%	-3%
60	CCCCc1ccc(CC(=O)NCc2coc(-c3cccs3)n2)cc1	-5%	-5%
61	Oc1cc(C2CCCCC2)cc(C2CCCCC2)c1	58%[activator]	-5%
62	CCC(C)[C@H](NC(=O)NCc1ccccc1)C(=O)OC (stereo partly specified)	-2%	4%
63	Cc1cc2nc(C(=O)Nc3ccc(C(C)C)cc3)c(=O)n(C)c2cc1C	1%	2%
64	CC(NC(=O)c1ccc2ccccc2n1)c1ccc(Cl)c(Cl)c1 (stereo unspecified)	7%	6%
65	Cc1ccc(S(=O)(=O)c2[nH]c(-c3ccccc3)nc2SC(C)C(=O)O)cc1 (stereo unspecified)	-11%	0%
66	Cc1ccc(NCc2ccccc2-c2nnc(-c3ccccc3Cl)o2)cc1Cl	-13%	30%
67	Cc1ccc(Cn2c(CNC(=O)c3cccc(C)c3)nc3ccccc32)cc1	1%	-7%
68	O=C(O)c1ccc(C#Cc2cccc(F)c2)cn1	-4%	106%[activator]
69	CCCOc1ccc(C(CC(=O)O)NC(=O)c2ccccc2F)cc1 (stereo unspecified)	-7%	-6%
70	CCN(CC)CCNC(=O)C1CCCN(c2ncnc3onc(C)c23)C1 (stereo unspecified)	-4%	-4%
71	CCCCn1c(N)c(N(C(=O)c2cc3c(s2)CCC3)C2CCCC2)c(=O)[nH]c1=O	-20%	-23%
72	CC(=O)c1ccc(Oc2nc(C)nc3c2oc2ccccc23)cc1	2.8µM*	?
73	CC(=O)Nc1ccccc1-c1nc2ccccc2n(C(C)C(=O)Nc2ccccc2C(F)(F)F)c1=O (stereo unspecified)	8%	-2%
74	Cc1ccc(S(=O)(=O)NCc2nc3cccnc3n2Cc2ccccc2Cl)c(C)c1	191%[activator]	-19%
75	CCCN(CC(=O)Nc1ccccc1C)C(=O)c1cc2ccccc2oc1=O	83%[activator]	93%[activator]
76	Clc1cc2[nH]c3c(c2cc1Cl)CCCC3	-20%	0%
77	COc1cccc(CNC(=O)C2=C(C)C(=O)OC23CCCCCC3)c1	7%	11%
78	CC1=C(C(=O)Nc2cccnc2)C(c2ccc(Cl)cc2)n2nc(SCc3ccccc3)nc2N1 (stereo unspecified)	-16%	-25%
79	O=C1/C(=C/c2ccc(F)cc2)C(c2ccccc2)Oc2ccccc21 (stereo unspecified)	-14%[1.06 µM]	28%
80	OCCCc1nc2ccccc2s1	4%	8%
81	CC(C)OCCCn1c(SCc2ccccc2C#N)nc2c(sc3ccccc32)c1=O	-4%	-8%
82	OCCc1ccccc1	4%	35%[activator][11.5 µM]
83	CCc1cc(=O)oc2cc(C)cc(OC(C)C(=O)NCc3cccnc3)c12 (stereo unspecified)	-2%	3%
84	O=C(/C=C/c1cc2ccccc2nc1N1CCOCC1)c1cccc(O)c1	-6%	11%
85	Cc1ccc2cccc(NC(=O)c3ccccc3)c2n1	16%	20%
86	COc1ccc(CNC(=O)Cc2c(C)c3ccc(OC)c(OC)c3oc2=O)cc1	1%	23%
87	CS(=O)(=O)NCCCNc1nc2ccccc2o1	-15%	20%
88	Cc1cc(C(=O)Nc2ccc(I)cc2)c(C)o1	20%	213%[activator]
89	CC(=O)c1ccc(NC(=O)C2CCCN(S(=O)(=O)c3cn(C)cn3)C2)cc1 (stereo unspecified)	8%	-5%
90	NC(=O)c1ccc(CN(CC2CCOC2)C2CC2)cc1 (stereo unspecified)	1%	3%
91	COc1ccc(S(=O)(=O)N(CC(F)(F)F)C2CC2)c2cccnc12	-1%	-8%
92	O=S(=O)(c1ccc2oc(Nc3ccc(F)c(F)c3)nc2c1)N1CCCCC1	5%	7%
93	CN(C)c1ccc(C2C=C(c3ccccc3)Nc3nnnn32)cc1 (stereo unspecified)	20%	103%[activator]
94	CCn1cc(Br)c(C(=O)Nn2c(C)nc3sc4c(c3c2=O)CCC(C)C4)n1 (stereo unspecified)	-11%	4%
95	O=C1C(=O)N(CCN2CCOCC2)C(c2cccc(F)c2)/C1=C(\O)c1ccc(Br)cc1 (stereo unspecified)	4%	-5%
96	Nc1nc2c(s1)C(c1cccc(OCc3ccccc3F)c1)CC(=O)N2 (stereo unspecified)	8%	15%
97	Nc1ccc(Sc2ccc(N)cc2)cc1	3%[114 µM]	4%[22.9 µM]
98	COc1cc(OC)c(NC(=O)N2CCCn3nc(C)cc32)cc1Cl	3%	-7%
99	O=C(/C=C/c1ccncc1)NCCc1ccc(F)cc1	-24%	48%[activator]
100	O=C1CCCN1CC(=O)N1CCCC(c2nc3ccccc3o2)C1 (stereo unspecified)	0%	14%
101	CCN1CCCC1CNC(=O)CCc1nc2ccccc2[nH]1 (stereo unspecified)	-12%	2%
102	CN(CC(=O)N(C)C1CCCc2ccccc21)c1ncnc2nc[nH]c12 (stereo unspecified)	-16%	-11%

Some of the entries so far, with values under each structure.
Under each structure – 2A Renilla, StopGo FLuc
(88) Cc1cc(C(=O)Nc2ccc(I)cc2)c(C)o1
→ 20%, 213%[activator]
(89) CC(=O)c1ccc(NC(=O)C2CCCN(S(=O)(=O)c3cn(C)cn3)C2)cc1 (stereo unspecified)
→ 8%, -5%
(90) NC(=O)c1ccc(CN(CC2CCOC2)C2CC2)cc1 (stereo unspecified)
→ 1%, 3%
(91) COc1ccc(S(=O)(=O)N(CC(F)(F)F)C2CC2)c2cccnc12
→ -1%, -8%
(92) O=S(=O)(c1ccc2oc(Nc3ccc(F)c(F)c3)nc2c1)N1CCCCC1
→ 5%, 7%
(93) CN(C)c1ccc(C2C=C(c3ccccc3)Nc3nnnn32)cc1 (stereo unspecified)
→ 20%, 103%[activator]
(94) CCn1cc(Br)c(C(=O)Nn2c(C)nc3sc4c(c3c2=O)CCC(C)C4)n1 (stereo unspecified)
→ -11%, 4%
(95) O=C1C(=O)N(CCN2CCOCC2)C(c2cccc(F)c2)/C1=C(\O)c1ccc(Br)cc1 (stereo unspecified)
→ 4%, -5%
(96) Nc1nc2c(s1)C(c1cccc(OCc3ccccc3F)c1)CC(=O)N2 (stereo unspecified)
→ 8%, 15%
(97) Nc1ccc(Sc2ccc(N)cc2)cc1
→ 3%[114 µM], 4%[22.9 µM]
(98) COc1cc(OC)c(NC(=O)N2CCCn3nc(C)cc32)cc1Cl
→ 3%, -7%
(99) O=C(/C=C/c1ccncc1)NCCc1ccc(F)cc1
→ -24%, 48%[activator]
(100) O=C1CCCN1CC(=O)N1CCCC(c2nc3ccccc3o2)C1 (stereo unspecified)
→ 0%, 14%
(101) CCN1CCCC1CNC(=O)CCc1nc2ccccc2[nH]1 (stereo unspecified)
→ -12%, 2%

Screens from PubChem.
